High-throughput results from PubChem BioAssay.
D2 potentiator – human D2 receptor positive allosteric modulation | P14416 | DiscoveRx D2 beta-arrestin cells, luminescence, 90 min; 100% = 57 uM dopamine signal | potentiation, % (no concentration beside the values) | actives 0.23% (n = 360,000); active = potentiation of 50% or more; inconclusive = 30% to 50%; inactive = 30% or less;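 further: compound concentration not given in the record; tested on top of an EC20 dose of dopamine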
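D2 cells co-treated with compound plus 50 nM dopamine (EC20) for 90 min at 37 deg C to detect potentiation. Beta-arrestin recruitment was read as enzyme-fragment luminescence after 1 h at ambient temperature. Full response was set by 57 uM dopamine.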
TRPV1 PAM – enhances activation of the human vanilloid receptor TRPV1. TRPV1-expressing cells, Fluo-8 calcium influx, capsaicin EC20 potentiation; host cell line not named in the record; control for the full effect not named in the record. potentiation, % at 8.33 µM. actives 0.02% (n = 320,000). AID 540277; active means potentiation above 80%; inconclusive means 30% to 80%; inactive means below 30%; further: 0% is about no effect
Target sequence (Q8NER1 whole entry, looked up): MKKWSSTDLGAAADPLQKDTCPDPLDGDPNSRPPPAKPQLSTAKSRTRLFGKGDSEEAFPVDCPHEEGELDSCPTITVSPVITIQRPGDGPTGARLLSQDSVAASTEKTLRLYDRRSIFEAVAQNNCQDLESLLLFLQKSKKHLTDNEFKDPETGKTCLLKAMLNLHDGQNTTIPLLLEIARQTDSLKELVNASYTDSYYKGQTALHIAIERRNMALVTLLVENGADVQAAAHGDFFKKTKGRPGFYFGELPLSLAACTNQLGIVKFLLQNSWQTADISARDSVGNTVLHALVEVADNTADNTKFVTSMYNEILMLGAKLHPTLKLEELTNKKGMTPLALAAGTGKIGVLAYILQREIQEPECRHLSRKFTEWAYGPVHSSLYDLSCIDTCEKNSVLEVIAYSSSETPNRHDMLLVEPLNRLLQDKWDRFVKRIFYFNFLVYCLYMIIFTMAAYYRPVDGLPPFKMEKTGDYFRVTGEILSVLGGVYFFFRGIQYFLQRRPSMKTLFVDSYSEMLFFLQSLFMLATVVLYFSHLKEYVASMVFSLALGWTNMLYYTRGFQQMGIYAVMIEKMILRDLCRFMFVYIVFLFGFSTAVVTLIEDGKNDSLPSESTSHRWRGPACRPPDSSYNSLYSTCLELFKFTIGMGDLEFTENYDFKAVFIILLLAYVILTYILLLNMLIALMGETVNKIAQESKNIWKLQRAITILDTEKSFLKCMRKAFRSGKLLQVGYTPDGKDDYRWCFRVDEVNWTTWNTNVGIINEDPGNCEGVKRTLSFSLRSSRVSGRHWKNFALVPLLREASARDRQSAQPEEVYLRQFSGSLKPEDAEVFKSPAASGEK
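Fluo-8 calcium influx in TRPV1-expressing cells, kinetic read (ex 480/em 520 nm). Compound added and read 3 min for agonist activity, followed by capsaicin at EC20 final and 2 min further read for enhancement.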
gsp agonist – activates gsp, the McCune-Albright syndrome mutation; gsp mutant cells, cAMP HTRF, 30 min; control for the full effect not named in the record; Potency, µM (titrated, usually from 76.9 µM), for inactives: top-dose activation (cAMP increase), most hits filed as activators; actives 0.13% (n = 340,000); AID 624287; active = well fitted activation curve with a large enough effect; inconclusive = small, poorly fitted or top-dose-only effect, or another doubt; inactive = no such curve, though single readings can be large or run the other way; cell line not stated here;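 further: phosphodiesterase inhibitor Ro 20-1724 added with compounds to block cAMP breakdown; potency means the concentration at half of the fitted maximal effect; nearly all actives have a fitted effect of over 60% in size; about a fifth of the inactives were tested at one dose only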
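Cells in DMEM/10% FBS with G418 were pretreated with compounds in DMSO plus […] (300 uM stock) for 30 min at 37C. cAMP was measured by HTRF (cAMP-d2 plus anti-cAMP antibody-K) after 30 min at room temperature.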
gsp antagonist – gsp mutant antagonism; gsp-mutant cells, cAMP HTRF, 30 min; control for the full effect not named in the record; Potency, µM (doses to about 76.9 µM), for the others: top-dose activity change, negative = inhibition, usual class: inhibitors; actives 0.4% (n = 340,000); active = falling curve of any shape with a large fitted effect; inconclusive = falling curve, mostly with a smaller effect; inactive = flat or rising curve; cell line not stated here;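 further: intracellular cAMP measured with PDE inhibitor Ro 20-1724 present during compound exposure; potency means the concentration at half of the fitted maximal effect; on the % scale 0 is the no-effect control and ±100 the full control effect; nearly all actives have a fitted effect of over 65% in size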
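HTRF cAMP measurement after 30 min RT detection following 30 min, 37C compound treatment alongside […] (added as 300 uM solution) in G418-selected cells seeded at 2000/well and grown 16–24 h.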
Menin-MLL FL inh – inhibitors of human menin-MLL interaction, wild-type MLL peptide | FP activity change, % at 61.4 µM | 290,000 tested, under 10 active | Fluorescence polarization, fluorescein-MLL peptide displacement from menin | AID 1766; inconclusive = falling polarisation curve, or a change in total fluorescence; inactive = total fluorescence flat and polarisation flat or rising; no compound was filed as active; the % refers to the polarisation; negative = inhibition;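 further: % of control where 0% means no effect; inhibitors lower the polarisation; unlabelled MLL peptide was the positive control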
Sfp PPTase inh – inhibitors of Bacillus subtilis Sfp phosphopantetheinyl transferase | Q9F4F7 | Potency, µM, inactives show max response, negative = inhibition, hits mostly inhibitors | actives 3.5% (n = 310,000) | Biochemical Sfp PPTase activity, qHTS | AID 1490; active means well fitted inhibition curve with a large enough effect; inconclusive means small, poorly fitted or top-dose-only effect, or another doubt; inactive means no such curve, though single readings can be large or run the other way;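 further: the enzyme is Sfp with the accession as filed and its product quenches rhodamine fluorescence; potency means the concentration at half of the fitted maximal effect; 0% = enzyme reaction without inhibitor and -100% = no enzyme wells; top concentration of the series not given in the record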
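Fluorescence-quenching assay: 15 nM Sfp-PPTase preincubated 15 min at room temperature with compound, then 5 uM rhodamine-CoA and 12.5 uM BHQ-2-labelled YbbR peptide added. Fluorescence (ex 525/em 598 nm) read at start and after 30 min; difference gives rate.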
ClpP mod – qHTS Assay for Activators of ClpP; AID 651965, 2013; actives 1.9% (n = 340,000); purified B. subtilis ClpP, FRET peptide cleavage, 20 min; ATP-dependent Clp protease proteolytic subunit (Bacillus subtilis (strain 168)), P80244; Potency, µM (titrated, usually from 57.5 µM), for inactives: at the highest dose activity change, negative = active; active = well fitted falling curve with a large enough effect; inconclusive = small, poorly fitted or top-dose-only effect; inactive = no such curve, though single readings can be large or run the other way; further: potency means the concentration at half of the fitted maximal effect; the source files actives as falling curves though it sought activators and does not explain the sign; nearly all actives have a fitted effect of over 65% in size; many hits overshoot -100%
Target sequence (P80244 whole entry, looked up): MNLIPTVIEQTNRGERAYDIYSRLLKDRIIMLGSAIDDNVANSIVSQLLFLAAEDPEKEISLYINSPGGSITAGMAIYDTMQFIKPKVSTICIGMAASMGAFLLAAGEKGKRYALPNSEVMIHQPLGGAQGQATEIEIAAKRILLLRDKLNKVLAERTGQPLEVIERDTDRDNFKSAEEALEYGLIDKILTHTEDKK
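Buffer: 100 mM Tris/HCl pH8, 100 mM KCl, 0.05% low protease BSA, 2.5% glycerol, 0.01% Tween-20. ClpP 10 microg/mL final; 20 min RT; delta FRET normalized to ADEP and DMSO controls.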
* = called active by the depositor; ? = inconclusive; / = not tested or not shown; & = joins results of further samples; [ ] = remark or other dose.

#	SMILES	D2 potentiator	TRPV1 PAM	gsp agonist	gsp antagonist
1	O=C1CC(N2CCSCC2)C(=O)N1c1ccc(F)cc1 (stereo not given)	1	9	16%[15.4 µM]	13%
2	CC1(C(=O)NCc2cccnc2)CCC(=O)N1Cc1cccs1 (stereo not given)	-7	3	-31%	7%
3	O=C(NCC1CC1)c1onc(CSc2ccncc2)c1C(=O)NCC1CC1	-3	-42	29%	-18%
4	COc1ccc(CC2(CO)CCN(Cc3cccc4nccnc34)CC2)cc1	-15	3	15%[15.4 µM]	3%
5	Cc1ccc(CNC(=O)CSCc2ccccc2)cc1	-2	-7	-2%	0%
6	CCC(C)Nc1cc(C)c(C#N)c2nc3ccccc3n12 (stereo not given)	2	-9	1%	3%
7	O=C(Nc1cccc(C(=O)N2CCOCC2)c1)c1ncn[nH]1	-22	18	-24%	6%
8	CCNC(=O)Cc1ccc(Br)cc1	-6	-7	13%	2%
9	CCCOc1ccc(N2C(=O)CC(N(CCOC34CC5CC(CC(C5)C3)C4)C(C)=O)C2=O)cc1 (stereo not given)	-27	4	9%[15.4 µM]	-6%
10	CC1CCN(CCCNC(=O)c2n[nH]c(=O)c3ccccc23)CC1	-37	-4	-25%	17%
11	COc1ccccc1Nc1nc(-c2sc(NC(=O)C(C)(C)C)nc2C)cs1	-11	7	/	-11%
12	O=C(CCc1ccccc1)Nc1nc2ccc(S(=O)(=O)N3CCOCC3)cc2s1	-13	5	27%	5%
13	O=C(Nc1ccccc1)NC1(C(=O)NCc2ccco2)CCCCC1	3	7	8%	6%
14	O=C1NC(=S)S/C1=C1\Sc2ccccc2N1CCCS(=O)(=O)O	-16	0	16%	0%
15	CCn1nnnc1SCC(=O)N1CCOCC1	-10	1	-41%[inhibitor]	16%

#	Menin-MLL FL inh	Sfp PPTase inh	ClpP mod
1	-0.9	-4%	-0.4%
2	0.7	13%	-0.4%
3	3.5	8%	-3.1%
4	-3.5	18%	/
5	2.4	1%	-2.6%
6	7.9	0%	/
7	6.0	-7%	-6.3%
8	-0.5	5%	-12%
9	4.3	-8%	-1.3%
10	-0.4	2%	-2.5%
11	5.9	-14%	-11%
12	-2.2	10%	-5.7%
13	5.9	17%	-2.0%
14	23	25µM*	-2.2%
15	4.0	12%	0.0%

Some of these compounds in order of number of heavy atoms, rising:
#	SMILES	D2 potentiator	TRPV1 PAM	gsp agonist	gsp antagonist
7	O=C(Nc1cccc(C(=O)N2CCOCC2)c1)c1ncn[nH]1	-22	18	-24%	6%
14	O=C1NC(=S)S/C1=C1\Sc2ccccc2N1CCCS(=O)(=O)O	-16	0	16%	0%
3	O=C(NCC1CC1)c1onc(CSc2ccncc2)c1C(=O)NCC1CC1	-3	-42	29%	-18%
4	COc1ccc(CC2(CO)CCN(Cc3cccc4nccnc34)CC2)cc1	-15	3	15%[15.4 µM]	3%
9	CCCOc1ccc(N2C(=O)CC(N(CCOC34CC5CC(CC(C5)C3)C4)C(C)=O)C2=O)cc1 (stereo not given)	-27	4	9%[15.4 µM]	-6%

#	Menin-MLL FL inh	Sfp PPTase inh	ClpP mod
7	6.0	-7%	-6.3%
14	23	25µM*	-2.2%
3	3.5	8%	-3.1%
4	-3.5	18%	/
9	4.3	-8%	-1.3%

(further entries)
#	SMILES	D2 potentiator	TRPV1 PAM	gsp agonist	gsp antagonist
16	C/C=N\NC(=O)CNC(=O)CNC(=O)c1ccccc1	-6	6	9%[15.4 µM]	16%
17	O=C(O)COc1ccc(-c2nnn(Cc3ccccc3F)n2)cc1	-18	7	12%	-5%
18	COc1ccc(CCC(=O)NNC(=O)c2cccs2)cc1	0	14	-47%[inhibitor]	6%
19	CCn1c(COc2ccc(Cl)cc2)nnc1SCC(=O)Nc1ccc2c(c1)OCCO2	-10	-1	1%	-3%
20	COc1ccccc1/C=C/C(=O)NNC(=O)c1cc(C)oc1C	5	2	6%[15.4 µM]	2%
21	COc1c(Br)cc(Br)cc1/C=C1/C(=O)N=C(N)N1C	-4	-13	7%	-1%
22	COc1ccnc(Oc2ccc(F)cc2)c1C(=O)N/C=N/OCc1cccc(F)c1	-1	4	-4%	11%
23	N=c1c2c(-c3ccccc3)c(-c3ccccc3)n(Cc3ccco3)c2ncn1CCN1CCOCC1	-21	-11	?	-7%
24	COc1cccc(CNC(=O)CCCn2nc(C)c3c(C)n(-c4ccccc4)nc3c2=O)c1	-2	6	-21%	-23%
25	Cc1cccc(NC(=S)NC(=O)CCc2ccccc2)c1	?	14	-3%	1%
26	CCCCN(C)CCNC(=O)CN1C(=O)CSc2ccc(S(=O)(=O)N3CCCCC3)cc21	-13	-3	?	-8%
27	CCCS(=O)(=O)Nc1c(C(=O)OC)[nH]c2ccccc12	-6	-5	-17%	-5%
28	CCn1nc(C)cc1C(=O)N(C)C1CCCN(Cc2ccccc2F)C1 (stereo not given)	0	-17	-10%	-3%
29	CCN(CC)CCNC(=O)Cn1cnc2sc(C)c(S(=O)(=O)N3CCC(C)CC3)c2c1=O	-8	20	-10%[15.4 µM]	3%
30	CC(=O)Nc1cccc(S(=O)(=O)N2CCCCCC2)c1	-9	2	-4%	-10%

#	Menin-MLL FL inh	Sfp PPTase inh	ClpP mod
16	0.5	10%	/
17	-0.7	6%	1.0%
18	/	/	0.1%
19	2.6	-7%	3.4%
20	/	/	-1.1%
21	18	17%	/
22	-4.0	6%	/
23	-0.1	-4%	0.7%
24	-3.2	9%	-3.9%
25	-3.4	2%	-0.5%
26	-4.6	0%	-1.2%&1.1%
27	2.7	-10%	-14%
28	-0.3	25%	-0.6%
29	-0.5	-6%	-1.2%
30	1.8	16%	-0.7%

(further entries)
#	SMILES	D2 potentiator	TRPV1 PAM	gsp agonist	gsp antagonist
31	CC(C)(OC(=O)NC(=O)C(F)(F)F)C(C)(C)OC(=O)NC(=O)C(F)(F)F	-3	-4	17%[15.4 µM]	-2%
32	CN(CC#CC(O)(c1ccccc1)c1ccccc1)C(C)(C)C	-9	-5	1%[15.4 µM]	10%
33	O=C(CN(c1ccccc1Cl)S(=O)(=O)c1ccccc1)NCc1ccccc1	-8	15	-28%	-22%
34	CCCn1c(SCC(=O)OCC)nc(C(F)(F)F)cc1=O	-5	-15	5%[15.4 µM]	-2%
35	CC(C)CN(C(=O)c1ccc([N+](=O)[O-])s1)c1c(N)n(Cc2ccccc2)c(=O)[nH]c1=O	22	3	-46%[inhibitor]	11%
36	Cc1cc(C(=O)NNC(=O)c2ccccc2[N+](=O)[O-])c(C)o1	-12	-7	?	13%
37	COc1cc(NC(=O)CN(c2cc(C)cc(C)c2)S(=O)(=O)c2c(C)[nH]c(=O)[nH]c2=O)cc(OC)c1	-11	-7	-16%	7%
38	O=C(c1ccco1)[C@@H]1[C@@H]2C(=O)N(c3ccc(F)cc3)C(=O)[C@@H]2C2c3ccccc3C=CN21 (stereo not given in full)	/	-8	/	/
39	Cc1nn(-c2ccccc2)c(C)c1/C=N/NC(=O)CSc1nnc(SCc2ccc(Cl)cc2)s1	5	8	-29%	-11%
40	CCOc1ccc(CN2CCCC(CO)(Cc3ccc(F)cc3)C2)cc1 (stereo not given)	-21	1	-23%	7%
41	CC(=O)Oc1ccc(-c2cc3c(OC(C)=O)cc(OC(C)=O)cc3oc2=O)cc1	20	/	/	-6%
42	CC(C)(C)S(=O)(=O)c1cnc(N2CCOCC2)nc1N	-2	1	2%[15.4 µM]	-5%
43	CCCOc1ccc(N2C(=O)CC(SC(=NCC)NCC)C2=O)cc1 (stereo not given)	-8	6	-34%[inhibitor]	9%
44	COc1ccc(CCNC(=O)CCNS(=O)(=O)c2ccc3c(c2)CCN3C(C)=O)cc1OC	1	-2	29%	-7%
45	O=C(c1cccc(N2C(=O)C3C4C=CC(C4)C3C2=O)c1)N1CCN(c2ccccc2Cl)CC1 (stereo not given)	-10	-1	-3%	-14%

#	Menin-MLL FL inh	Sfp PPTase inh	ClpP mod
31	8.0	-1%	/
32	1.7	-15%	-1.9%
33	0.8	19%	-0.6%
34	-2.9	17%	/
35	/	/	-1.4%
36	/	/	-2.7%
37	/	4%	-0.3%&-2.0%
38	?	-29%	/
39	1.3	4%	1.9%
40	-5.8	14%	/
41	/	/	4.7%
42	-0.7	12%	-0.1%
43	2.8	12%	-3.2%
44	-1.6	2%	-3.4%
45	4.2	5%	-1.7%

More records follow:
#	SMILES	D2 potentiator	TRPV1 PAM	gsp agonist	gsp antagonist
46	COc1ccc(/C=N/NC(=O)CCCC(=O)NC2CCCCC2)cc1	-8	12	-3%	5%
47	CCOC(=O)c1c(C)[nH]c(C(=O)OCC(=O)Nc2cccnc2Cl)c1C	17	9	4%[15.4 µM]	1%
48	COc1ccc(N2CSC3=C(C#N)C(c4cc(OC)c(OC)cc4OC)CC(=O)N3C2)c(OC)c1 (stereo not given)	-2	4	19%	-4%
49	COc1ccc(NC(=O)c2ccco2)cc1NC(=O)c1ccccc1F	-1	-45	3%	9%
50	COC(=O)[C@@]12CCCCN1[C@H](c1ccc(-c3ccc4c(c3)OCO4)cc1)[C@H]1C(=O)N(C)C(=O)[C@H]12	-10	/	/	-6%
51	CCOc1ccc2c(C)c(Cl)c(=O)oc2c1	7	2	?	1%
52	Cc1ccc(-c2c(C(=O)N/N=C/c3cccnc3)nnn2-c2nonc2N)cc1	5	5	-1%	-13%
53	COc1ccc(N2CC(C(=O)Nc3nnc(SCC(=O)Nc4ccc(NC(C)=O)cc4)s3)CC2=O)cc1 (stereo not given)	-11	/	0%	/

#	Menin-MLL FL inh	Sfp PPTase inh	ClpP mod
46	1.5	24%	-3.0%
47	/	/	-19%
48	12	3.5µM*	-0.9%
49	-0.8	15%	/
50	/	/	?
51	0.0	-9%	54%
52	3.2	-2%	/
53	/	/	-3.1%
